Assay outcomes deposited in PubChem BioAssay by National Center for Advancing Translational Sciences (NCATS).
TRPML1 agonist: qHTS for Agonists of the Human Mucolipin Transient Receptor Potential 1 (TRPML1). 410,000 compounds, 0.12% hits. TRPML1-expressing cells, Ca2+ dye fluorescence, FDSS; host cell line not named in the record; reference of the full effect not given here. AID 624414, 2012. activation, % (test concentration not listed). Mucolipin-1 (Homo sapiens), Q9GZU1; in the data active = activation above about 50%; inconclusive = about 30% to 50%; inactive = below about 30%; note: 0% is about no effect; the text of the record puts the active cut at 80%
Target sequence (Q9GZU1 whole entry, looked up): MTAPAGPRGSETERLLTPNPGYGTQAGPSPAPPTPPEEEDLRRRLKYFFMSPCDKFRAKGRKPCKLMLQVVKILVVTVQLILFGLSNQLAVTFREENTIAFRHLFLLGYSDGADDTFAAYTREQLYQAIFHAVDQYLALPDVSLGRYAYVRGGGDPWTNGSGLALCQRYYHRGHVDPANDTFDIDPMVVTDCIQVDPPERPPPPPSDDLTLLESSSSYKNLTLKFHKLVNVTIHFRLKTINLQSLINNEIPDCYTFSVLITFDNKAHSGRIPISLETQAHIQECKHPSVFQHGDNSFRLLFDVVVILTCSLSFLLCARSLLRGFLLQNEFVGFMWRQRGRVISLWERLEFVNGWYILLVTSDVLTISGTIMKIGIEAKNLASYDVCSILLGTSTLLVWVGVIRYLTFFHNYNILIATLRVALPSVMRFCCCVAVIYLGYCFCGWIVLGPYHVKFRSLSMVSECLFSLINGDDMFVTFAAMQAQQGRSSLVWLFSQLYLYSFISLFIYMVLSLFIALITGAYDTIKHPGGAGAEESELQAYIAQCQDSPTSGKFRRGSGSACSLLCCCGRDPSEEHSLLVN
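Calcium fluorescence on an FDSS kinetic reader gave the read-out. Tet-induced TRPML1-DL cells were plated overnight, dye-loaded (Ca8 with quencher, 45-90 min, room temperature, dark), then read 110 s after compound addition, and again 110 s after 4uM final 54-4 (EC80).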
D2 agonist: Beta-Arrestin HTS for Positive Allosteric Modulators of the Human D2 Dopamine Receptor: Agonists; D(2) dopamine receptor (Homo sapiens), P14416; DiscoveRx PathHunter D2 beta-arrestin, luminescence, 90 min; 100% = 57 uM dopamine signal; activation, % (concentration not given with the values); 360,000 compounds, 0.084% hits; in the data active = activation above about 40%; inconclusive = about 15% to 40%; inactive = below about 15%; note: the text of the record calls up to 30% inactive
Target sequence (P14416 whole entry, looked up): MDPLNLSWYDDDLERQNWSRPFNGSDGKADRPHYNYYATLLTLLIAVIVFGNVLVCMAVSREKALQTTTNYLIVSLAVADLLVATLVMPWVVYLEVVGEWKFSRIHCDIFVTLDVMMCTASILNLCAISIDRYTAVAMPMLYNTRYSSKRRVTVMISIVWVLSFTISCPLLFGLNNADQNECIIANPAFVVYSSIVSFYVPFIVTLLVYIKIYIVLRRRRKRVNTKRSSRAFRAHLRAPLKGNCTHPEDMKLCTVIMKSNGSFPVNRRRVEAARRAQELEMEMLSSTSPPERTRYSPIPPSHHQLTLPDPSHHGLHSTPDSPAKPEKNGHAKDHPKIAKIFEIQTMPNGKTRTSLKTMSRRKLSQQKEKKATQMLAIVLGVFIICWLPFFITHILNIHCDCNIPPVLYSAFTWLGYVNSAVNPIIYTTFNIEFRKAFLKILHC
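Agonist mode: compounds alone added to overnight-plated D2 PathHunter cells for 90 min at 37 C, with 57 uM final dopamine (EC100) defining full response. Beta-arrestin recruitment detected by chemiluminescent reagent, read after 1 h at ambient temperature.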
D2 PAM: Beta-Arrestin HTS for Positive Allosteric Modulators of the Human D2 Dopamine Receptor: Potentiators; 360,000 compounds, 0.23% hits; D(2) dopamine receptor (Homo sapiens), P14416; DiscoveRx D2 beta-arrestin cells, luminescence, 90 min; 100% = 57 uM dopamine signal; potentiation, % (concentration not given with the values); active = potentiation of 50% or more; inconclusive = 30% to 50%; inactive = 30% or less;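 note: tested on top of an EC20 dose of dopamine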
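PathHunter D2 cells, attached overnight at 37 deg C, received compound in DMSO plus dopamine at EC20 (50 nM final) for 90 min at 37 deg C. Beta-arrestin recruitment was read as luminescence after 1 h with detection reagent at ambient temperature.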
TRPML1 blocker: qHTS for Inhibitors of the Human Mucolipin Transient Receptor Potential 1 (TRPML1). Mucolipin-1 (Homo sapiens), Q9GZU1. TRPML1-inducible cells, Ca2+ dye fluorescence, FDSS; active compounds read low; inhibition of EC80 agonist-evoked calcium signal. activity change, negative = inhibition, % (test concentration not listed). 390,000 compounds, 0.02% hits; in the data active means activity change below about -50%; inconclusive means about -30% to -50%; inactive means above about -30%;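 note: stimulus is agonist 54-4 at its EC80 concentration; % is set by controls: 0 for no effect and ±100 for the full control effect; compound concentration not given in the record; the text of the record puts the active cut at -80%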
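Calcium fluorescence in TRPML1-DL cells induced overnight with Tet: a 110 s read after compound pin addition, then a 110 s antagonist read after challenge with 54-4 at 4 uM final (EC80).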
Six1-Eya2 blk: qHTS Assay for Inhibitors of the Six1/Eya2 Interaction; AID 651725, 2012; activity change, % (concentration not given with the values); 360,000 compounds, 0.56% hits; Homeobox protein SIX1 (Homo sapiens) + Protein phosphatase EYA2 (Homo sapiens), …; AlphaScreen GST-Six1/His-Eya2 binding, biochemical; active compounds read low; control for the full effect not named in the record; in the data active = activity change below about -65%; inconclusive = about -30% to -65%; inactive = above about -30%; note: % is set by controls: 0 for no effect and ±100 for the full control effect
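AlphaScreen with GST-Six1 and His-Eya2 (5X mix: 250 nM and 500 nM), glutathione donor and nickel acceptor beads; buffer 50 mM Tris pH 8.0, 300 mM NaCl, 1 mM TCEP; 1 h at 37 C in the dark.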
PINK1 expr mod: A Quantitative High throughput Screen to Identify Chemical Modulators of PINK1 Expression. PINK1 immunofluorescence, high-content cytometry, 24 h. 410,000 compounds, 0.2% hits. Potency, µM (highest dose often 76.6 µM), for inactives: top-dose activation (PINK1 increase), most hits filed as activators. AID 624263, 2012; active = well fitted activation curve with a large enough effect; inconclusive = small, poorly fitted or top-dose-only effect; inactive = flat fitted curve, though single readings scatter; cell line not stated here;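 note: potency is the fitted concentration of half-maximal effect; % of control where 0% means no effect; nearly all actives have a fitted effect of over 65% in size; a mitochondrial uncoupler was the plate control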
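Stable cell line treated 24 h with compounds at 5 concentrations (CCCP controls), then fixed and immunostained for PINK1 plus nuclear and cell stains; PINK1 immunofluorescence quantified by laser-scanning microplate cytometry.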
The depositor's hits bear a star; ? = inconclusive; . = not tested or not shown; [ ] = another dose, or the depositor's remark. Rows are unselected, and some 1% of all compounds hit somewhere here.

Screens in order – Six1-Eya2 blk, TRPML1 agonist, D2 agonist, D2 PAM, TRPML1 blocker, PINK1 expr mod
c1cc2c(cc1C1=Nn3c(nnc3C3CCCCC3)SC1)OCO2
 : 0, 2.6, 1.4, -14, 21, .
CCOC(=O)C1=C(N)OC2=C(C(=O)CCC2)C1c1ccc(C)s1 (stereo unspecified)
 : -2, -0.5, -0.1, -19, 4, -0.6%[38.3 µM]
O=C(CN1CCCCCC1)N/N=C/c1ccc(Cl)c(Cl)c1
 : -11, -0.4, -0.1, -12, -5, 3.4%
CC(c1ccco1)N(C(=O)c1ccc(S(=O)(=O)N2CCCCC2)cc1)c1ccccn1 (stereo unspecified)
 : 2, -1.0, -2.3, -1, -4, 0.8%
O=S(=O)(Nc1ccc2c3c(cccc13)CC2)c1ccccc1
 : 1, 0.0, -1.7, -10, 6, 1.8%
CCOc1cccc2cc(-c3nc(-c4ccc(Cl)cc4)c(C)s3)c(=O)oc12
 : ., -0.8, ., ., -17, 1.4%
Cc1ccc(C)n1Cc1ccc(C(=O)O)cc1
 : -71*, 0.8, 4.7, -3, 0, 8.1%[38.3 µM]
COc1cccc(C(=O)c2cc3cc(Cl)ccc3[nH]2)c1
 : -1, 1.1, 3.4, -2, 36, 4.5%
COc1c(N)c2ccccc2[nH]c1=O
 : -7, -1.3, -5.0, 12, 62, 1.8%
Cc1ccc(N(C(=O)c2ccccc2Cl)C2=NC(C)CS2)c(C)c1 (stereo unspecified)
 : -1, 2.7, -6.6, -7, 2, 5.4%

Single records, as listed above.
COc1cccc(C(=O)c2cc3cc(Cl)ccc3[nH]2)c1 is entered as Six1-Eya2 blk: -1; TRPML1 agonist: 1.1; D2 agonist: 3.4; D2 PAM: -2; TRPML1 blocker: 36; PINK1 expr mod: 4.5%
O=S(=O)(Nc1ccc2c3c(cccc13)CC2)c1ccccc1 is entered as Six1-Eya2 blk: 1; TRPML1 agonist: 0.0; D2 agonist: -1.7; D2 PAM: -10; TRPML1 blocker: 6; PINK1 expr mod: 1.8%

3 records picked at random from those above, as already listed:
Screens in order – Six1-Eya2 blk, TRPML1 agonist, D2 agonist, D2 PAM, TRPML1 blocker, PINK1 expr mod
COc1c(N)c2ccccc2[nH]c1=O
 : -7, -1.3, -5.0, 12, 62, 1.8%
Cc1ccc(N(C(=O)c2ccccc2Cl)C2=NC(C)CS2)c(C)c1 (stereo unspecified)
 : -1, 2.7, -6.6, -7, 2, 5.4%
COc1cccc(C(=O)c2cc3cc(Cl)ccc3[nH]2)c1
 : -1, 1.1, 3.4, -2, 36, 4.5%

(list continues)
Screens in order – Six1-Eya2 blk, TRPML1 agonist, D2 agonist, D2 PAM, TRPML1 blocker, PINK1 expr mod
O=C(NCc1ccc(F)cc1)c1cc(C2CCCCN2C(=O)c2cccs2)on1 (stereo unspecified)
 : -2, 0.4, -1.7, -10, 3, 0.1%
COc1cc(OC)cc(C(=O)N(CCCN2C(=O)c3cccc4cccc(c34)C2=O)c2cccc(OC)c2)c1
 : -9, 0.5, -1.7, 2, -6, 1.5%
COc1ccc(Br)cc1[C@H]1[C@@H]2C=CCC[C@@]2(C)C(=O)N1Cc1ccccc1
 : -10, -0.4, -2.9, -12, -4, 6.6%
O=C(Nc1scc(-c2ccccc2)c1C(=O)O)c1ccc(F)cc1
 : 6, ., -1.3, 4, ., -0.6%
COc1ccc(C(C)=O)cc1CN1C(=O)NC2(CCCCC2)C1=O
 : 4, -0.2, -2.6, -16, 3, 2.8%
CC1Cc2cc(S(=O)(=O)N(Cc3ccccc3)C(C)C)ccc2N1C(=O)C1CCC1 (stereo unspecified)
 : ., ?, ., ., 22, 0.2%
CC(C)Nc1ccc(C(CC(N)=O)NC(=O)Cc2cccc3ccccc23)cc1[N+](=O)[O-] (stereo unspecified)
 : 5, 0.1, -2.3, -7, -4, 22%
CCOC(=O)C1(Cc2ccccc2)CCN(Cc2nccn2CC)CC1
 : -23, -0.3, -3.5, -3, -7, -1.4%
C[C@H]1CN([C@@H](C)CO)C(=O)c2cc(Br)cnc2O[C@H]1CN(C)C(=O)c1ccc2c(c1)OCO2
 : 2, -0.7, 0.1, -2, -5, 1.5%
COc1cc(NC(=O)Nc2nc(C(N)C(C)C)cs2)cc(OC)c1OC (stereo unspecified)
 : -21, -1.0, 4.2, 1, ., 14%

Arranged by value in Six1-Eya2 blk (smallest number first): three of the compounds above
SMILES	Six1-Eya2 blk	D2 agonist	D2 PAM	TRPML1 blocker	PINK1 expr mod
COc1ccc(Br)cc1[C@H]1[C@@H]2C=CCC[C@@]2(C)C(=O)N1Cc1ccccc1	-10	-2.9	-12	-4	6.6%
COc1cc(OC)cc(C(=O)N(CCCN2C(=O)c3cccc4cccc(c34)C2=O)c2cccc(OC)c2)c1	-9	-1.7	2	-6	1.5%
O=C(Nc1scc(-c2ccccc2)c1C(=O)O)c1ccc(F)cc1	6	-1.3	4	.	-0.6%

Continued:
Screens in order – Six1-Eya2 blk, TRPML1 agonist, D2 agonist, D2 PAM, TRPML1 blocker, PINK1 expr mod
Cc1ccc(S(=O)(=O)NNC(=O)c2cc(C)cs2)cc1
 : 5, -0.5, -0.1, 3, -10, 1.3%
COc1ccc(Cc2nnc(SCC(=O)NC3CCCC3)o2)cc1
 : 8, -0.3, -0.8, -9, 18, 0.1%
CC1(C)C(C=C(Cl)Cl)C1C(=O)N1CCN(c2ccccc2)CC1 (stereo unspecified)
 : -8, 1.4, 2.7, -7, 25, -5.6%[38.3 µM]
CC(=O)NC12CC3CC(C1)CC(C(=O)N1CCN(S(=O)(=O)c4ccc(C(C)C)cc4)CC1)(C3)C2
 : -1, 0.8, -5.8, 1, 20, 14%
COc1ccccc1NS(=O)(=O)c1cc(C(=O)NCCN2CCOCC2)ccc1Cl
 : -1, -0.2, -1.4, -20, 10, -1.1%[38.3 µM]
Cc1cccc(NC(=O)CNC(=O)c2cn(Cc3ccccc3)nc2-c2cccnc2)c1C
 : 5, 0.6, -2.9, -1, 1, 0.3%
CCOC(=O)Cc1csc(SC(C)C(=O)NC2CCCCC2C)n1 (stereo unspecified)
 : 3, -1.0, 0.6, -14, 7, -2.8%
COC(=O)CN(c1ccc(C(C)C)cc1)S(=O)(=O)c1c(C)[nH]c(=O)[nH]c1=O
 : 0, -0.5, -4.7, -4, -12, 1.2%
CC(C)(Oc1ccc(Cl)cc1)C(=O)NCC(c1ccco1)N1CCCCC1 (stereo unspecified)
 : -1, 0.7, -4.6, -10, -4, 4.6%
COC(=O)c1sc2cccc(F)c2c1S(=O)(=O)N1CCN(c2ccc(F)cc2)CC1
 : ., 1.5, ., ., 60, 1.9%
Cc1noc(C)c1NC(=O)Nc1ccc2c(c1)C(=O)N([C@@H](C)CO)C[C@@H](C)[C@@H](CN(C)Cc1ccc3c(c1)OCO3)O2
 : -10, -0.6, -1.7, ., -12, 0.3%
COc1ccc(Cc2c(-c3ccc(OC)c(OC)c3)nc3cc(C)c(Br)c(C)n23)c(C)c1
 : -7, 0.1, ., ., ., 3.5%
CCn1c(CSc2nccn2C)nc2cc(C(=O)O)ccc21
 : -4, -0.5, 0.6, -3, -3, 0.4%
CCc1ccc(NC(=O)CN2CCC(C(=O)c3ccc(OC)cc3)CC2)cc1
 : 7, -0.4, -0.5, -11, 19, 0.6%
CCn1c(CNC(=O)c2ccc(OC)cc2)nnc1SCC(=O)c1ccccc1
 : 1, 0.0, -3.4, -5, -7, -4.0%
Cc1ccc(S(=O)(=O)CCC#N)cc1
 : 6, 0.0, -1.4, -10, 12, -1.4%
Cc1nc(N2CCN(C)CC2)c2cc(-c3ccccc3)sc2n1
 : -1, -0.4, -0.6, -7, 9, 1.0%
CCCCn1c(N)c(N(CC(C)C)C(=O)CSCC(=O)Nc2ccc(OC)cc2)c(=O)[nH]c1=O
 : 6, -0.5, -2.4, -12, 3, 0.7%
CCN1CCN(C(=O)/C=C/c2ccc(C(C)C)cc2)CC1
 : -2, 1.2, -5.6, -7, 4, -0.7%
Cc1cc(C)n(CC(O)CN(c2cccc([N+](=O)[O-])c2)S(=O)(=O)c2ccccc2)n1 (stereo unspecified)
 : -7, -0.7, -0.7, 6, 0, -0.2%
Cc1c(-c2nsc(NC(=O)c3ccc(Cl)cc3)n2)nnn1-c1ccc(C(C)C)cc1
 : ., -0.4, ., ., -6, 4.5%
COc1ccc(OC)c(C(=O)c2c(C)oc3cc([N+](=O)[O-])c(O)c([N+](=O)[O-])c23)c1
 : -7, 2.1, -6.0, -8, 6, -0.1%
N=c1n(CCN2CCOCC2)c2ccccc2n1CC(=O)c1ccc(Cl)c(Cl)c1
 : 17, 1.5, -2.7, -13, 26, -4.3%
O=C(Nc1cccc(C(=O)O)c1)/C(=C\c1cccc([N+](=O)[O-])c1)NC(=O)c1ccc(Br)cc1
 : -3, -0.2, -2.4, -8, -11, 0.7%
Cc1ccc2nc(-c3ccc(NC(=O)COC(=O)c4ccc(=O)[nH]c4)cc3)sc2c1
 : -20, -0.2, -3.6, 0, -3, 11%
Cc1ccc(SCCC(=O)Nc2cc(C)on2)cc1
 : 1, -1.2, 1.1, -4, 9, 0.4%
CC[C@]12c3[nH]c4ccc(Cl)cc4c3CCN1C(=O)[C@@H](CC(=O)NCCC1=CCCCC1)C[C@@H]2C(=O)N1CCN(C(=O)c2ccco2)CC1
 : -12, 7.2, 0.7, ., -7, 2.5%
Cc1cccc(C)c1OCc1cc(C(=O)N2CCCC2c2nonc2C)no1 (stereo unspecified)
 : -2, 4.6, 0.6, -14, 79, -1.5%
Cc1ccc(S(=O)(=O)N2CCOCC2)cc1C(=O)NCc1ccc2c(c1)OCO2
 : 4, -0.9, -0.5, 13, 7, 0.9%
Cc1ccc(-c2nc3ncccn3c2NC2CCCC2)o1
 : -4, -0.3, 0.7, -1, 17, -1.5%
CCOC(=O)c1c(NC(=O)COc2cccc(C)c2C)sc2c1CCC(CC)C2 (stereo unspecified)
 : ., -0.4, ., ., 9, 1.3%
Cc1ccccc1OCc1nc2c3c(ncn2n1)-c1ccccc1CC31CCCC1
 : 3, 0.5, -1.3, -14, 2, 12%
